Compound activity (PubChem BioAssay)
KAT2A inh: GCN5L2 (KAT2A) acetyltransferase inhibition; Q92830; GCN5L2 HAT assay, ThioGlo1 CoA-SH fluorescence; Potency, µM (top dose mostly 58.9 µM), for inactives: at the highest dose activity change, negative = inhibition, most hits filed as inhibitors; actives 0.21% (n = 390,000); AID 504327; active = well fitted inhibition curve with a large enough effect
Target sequence (Q92830 whole entry, looked up): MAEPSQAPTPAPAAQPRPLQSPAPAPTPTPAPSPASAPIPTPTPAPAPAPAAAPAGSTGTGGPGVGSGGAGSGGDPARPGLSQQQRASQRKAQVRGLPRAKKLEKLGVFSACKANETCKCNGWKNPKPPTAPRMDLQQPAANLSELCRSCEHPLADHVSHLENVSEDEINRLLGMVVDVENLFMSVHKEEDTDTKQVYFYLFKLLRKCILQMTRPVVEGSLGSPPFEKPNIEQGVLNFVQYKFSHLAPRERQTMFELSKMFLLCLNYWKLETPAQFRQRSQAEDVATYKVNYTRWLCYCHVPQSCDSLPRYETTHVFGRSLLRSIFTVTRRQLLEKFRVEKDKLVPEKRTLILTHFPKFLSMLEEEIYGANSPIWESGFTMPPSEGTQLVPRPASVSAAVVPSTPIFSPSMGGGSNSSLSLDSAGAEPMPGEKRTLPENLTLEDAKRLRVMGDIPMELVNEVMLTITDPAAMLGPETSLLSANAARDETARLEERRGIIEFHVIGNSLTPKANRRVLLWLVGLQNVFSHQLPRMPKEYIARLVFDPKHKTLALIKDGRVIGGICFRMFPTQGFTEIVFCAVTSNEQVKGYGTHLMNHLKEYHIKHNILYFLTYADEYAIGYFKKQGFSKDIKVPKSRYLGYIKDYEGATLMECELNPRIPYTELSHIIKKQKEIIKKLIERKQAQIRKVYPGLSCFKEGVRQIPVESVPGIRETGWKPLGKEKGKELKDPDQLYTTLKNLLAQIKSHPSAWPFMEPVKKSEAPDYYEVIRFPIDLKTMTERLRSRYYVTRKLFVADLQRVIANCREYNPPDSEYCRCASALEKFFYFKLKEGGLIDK
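GCN5L2 (20 nM) in 50mM HEPES pH 7.5, 0.1mM EDTA, 0.01% Tween-20 preincubated 15 min with compounds at room temperature. Reaction started with H3(1-25) 75uM, acetyl-CoA 70uM, ThioGlo1 50uM; CoA-thiol fluorescence (Ex340/Em540) read at 0 and 20 min.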
An asterisk follows results filed as active; & = joins results of further samples. % is set by controls: 0 for no effect and ±100 for the full control effect; potency is the fitted concentration of half-maximal effect. Some of the compounds tested; most or all hits stand in other tables.

molecule	KAT2A inh
CC(C)(C)C(=O)Nc1ccccc1C(=O)N1CCCC1	-11.3%
Cc1ccc(NC(=O)CCNC(=O)Cn2cnc3ccccc3c2=O)cc1F	-1.9%
FC(F)(F)Oc1ccc(NC(=S)Nc2ccc(OC(F)(F)F)cc2)cc1	-7.7%
COc1cc(NC(=S)N2CCCC(CO)C2)c(OC)cc1Cl (stereo unspecified)	0.8%
COc1ccc(C(=O)O/N=C(\N)Cc2cccs2)cc1OC	-18.9%
COc1ccc(-n2cc3c(-c4cccc(Br)c4)nnc(C)c3n2)cc1	-7.9%
O=C(NCc1ccc(Cl)cc1)C(=O)NCC(c1ccco1)N1CCOCC1 (stereo unspecified)	0.6%
CCn1cc(C(=O)NP(=O)(Nc2ccc(C)cc2)Nc2ccc(C)cc2)c2ccccc21	1.9%
O=C(CCc1ccccc1)NC1CC(=O)N(c2cccc(F)c2)C1 (stereo unspecified)	0.4%
O=C(Nc1ccnn1C1CCN(C(=O)c2cccc(Cl)c2)CC1)C1CC1	2.6%
CN(CC(=O)Nc1ccccc1Br)C(=O)CN(C)C1CCCCC1	2.2%
O=S(=O)(NCC1OCCc2ccccc21)c1ccccc1 (stereo unspecified)	7.5%
COc1ccc(C)cc1NC(=O)c1ccc(S(=O)(=O)N2CCCCC2)cc1	-4.2%
COc1ccc(CNC(=O)N[C@@H](CC(C)C)C(=O)O)cc1OC	0.8%
C[C@]12C[C@H](O)[C@H]3[C@@H](CCC4=CC(=O)CC[C@@]43C)[C@@H]1CC[C@@H]2C(=O)CO	-3.6%&-2.2%&0.8%
O=C(NC1CCCc2c1cnn2-c1ccc(F)cc1F)c1ccccn1 (stereo unspecified)	16.9%
Cc1cc(C)c(NC(=O)c2oc3ccccc3c2COc2ccccc2)c(C)c1	-12.0%
Cc1cc(NC(=O)COc2ccc3ccccc3c2Br)no1	-4.4%
COc1ccc(-n2c(C)cc(C(=O)CN3CCC(C)CC3)c2C)cc1	-12.7%
CC(C)OCCCNC(=O)Cn1ccc2cc(S(=O)(=O)N3CCCCCC3)ccc21	-4.7%&-1.0%
O=C(N[C@@H](Cc1ccccc1)C(=O)O)c1cccs1	-1.7%
CCOC(=O)c1nn(-c2ccccc2)c2nc(Nc3ccccc3)cc(=O)n12	-5.5%
CCc1ccc(CN2C(=O)c3ccccc3C2C(=O)NCc2cccnc2)cc1 (stereo unspecified)	0.1%
CNC(=O)COc1cccc(C(=O)NCc2ccccc2)c1	-8.4%
COc1ccccc1CN(C)C(=O)C1(c2ccc(Cl)cc2)CC1	19.0%
O=C(CCc1n[nH]c(=O)[nH]c1=O)N/N=C/c1ccc(Br)o1	-4.4%
Cc1nc([N+](=O)[O-])cn1CC(=O)Nc1ccc(Cl)cc1	-7.4%
CC(=O)c1ccc(C(=O)N2CCCC(C(=O)c3ccc(Cl)cc3)C2)s1 (stereo unspecified)	-27.8%
Cn1c(=O)cc(OCCCC(=O)NCc2cccnc2)c2ccccc21	-2.2%
O=[N+]([O-])c1cc(-c2ccc(/C=N/n3cnnc3)o2)ccc1Cl	-14.9%
C/C(=N/Oc1nc(C)cc(C)n1)c1ccc(F)cc1	-4.8%
O=C(Cn1ncn2nc(-c3ccccc3)cc2c1=O)NCc1ccccn1	-11.8%
Cc1ccccc1Cn1c(=O)n(CCc2ccccc2)c(=O)c2c(C)c(C)sc21	-0.2%
Fc1ccc(N2CN(Cc3cccnc3)CNC2=S)cc1	2.5%
COc1ccc(OC)c(NC(=O)c2c(NCc3ccc(C)o3)sc3c2CCC(C)C3)c1 (stereo unspecified)	-5.4%
CCOc1ccc(CCNC(=O)C(CC)n2nc(C)n3c(cc4sccc43)c2=O)cc1OCC (stereo unspecified)	-4.2%
CC(C(=O)O)N(c1ccccc1Cl)S(C)(=O)=O (stereo unspecified)	1.2%
CCOC(=O)c1c(NC(=O)c2cc3nc(-c4ccc(OC)cc4)cc(C(F)(F)F)n3n2)sc(C)c1C	-3.1%
CC(=O)c1cccc(S(=O)(=O)NCCC(=O)NC2CCCCCC2)c1	-0.5%
COc1ccccc1NC(=O)CCC(=O)OCC(=O)c1ccc(C)c([N+](=O)[O-])c1	-11.0%
CCOC(=O)C1=C(COC(=O)CCNS(=O)(=O)c2ccc(NC(C)=O)cc2)NC(=O)NC1C (stereo unspecified)	-3.3%
Cc1cccc(-n2ncc3c(NCCOCCO)ncnc32)c1	-4.7%
Cc1nnc(NCc2ccccc2)c2c1nnn2Cc1ccccc1Cl	1.6%
COc1ccccc1/C=C1/SC(=O)N(CCC(=O)Nc2ccc(S(=O)(=O)Nc3nccs3)cc2)C1=O	-27.2%
Cc1cc(CC(=O)O)n(C)c1C(=O)c1ccc(Cl)cc1	1.0%
O=C(NCC(=O)N(Cc1ccccc1)C(C(=O)NCC1CCCO1)c1ccccc1)c1cccs1 (stereo unspecified)	-2.2%
CC(C#Cc1ccc2c(c1)COc1c3ccccc3nn1-2)OC(C)(C)C (stereo unspecified)	-3.3%
O=C(NCc1ccncc1)c1c(F)c(F)c(F)c(F)c1F	1.0%
COc1ccc(NC(=O)C(c2ccc(C)cc2)N(C)C(=O)CC2NC(=O)NC2=O)cc1 (stereo unspecified)	2.1%
CC(C)NC(=O)C1CCCN(c2nnc(-n3cccc3)s2)C1 (stereo unspecified)	-7.4%
CC(C)(C)NC(=O)COc1ccc(-c2ccccc2)cc1	-11.1%
O=C(c1ccco1)N1CCN(S(=O)(=O)c2ccc(Oc3ccccc3)cc2)CC1	-1.8%
O=C(O)CCCN1C(=O)C2C3CC(C2C1=O)C1C(c2ccccc2)c2sc(=O)n(-c4ccccc4)c2SC31 (stereo unspecified)	-0.1%
CC(C)(C)OC(=O)C[C@H]1C/C=C\C[C@@H](CC(=O)N[C@@H](CO)Cc2ccccc2)C(=O)N2CCC[C@H]2COC1=O	0.4%
NC(=O)C1CCCN(C(=O)c2ccc(Cl)cc2)C1 (stereo unspecified)	1.9%
CCOC(=O)C(=NCCCN1CCOCC1)NNc1cccc(C(F)(F)F)c1	-5.4%
COCCNc1nc(C)cc(-c2cc(C(=O)NC3CCCC3)on2)n1	-0.7%
COc1ccc(N(C(=O)c2cc(OC)c(OC)c(OC)c2)S(=O)(=O)c2ccc(C)cc2)cc1	-3.6%
CCN(CC)C(=O)CSc1nnc([C@@H](NC(=O)OC(C)(C)C)C(C)C)o1	-2.0%
O=S1(=O)c2ccc(Br)cc2N2CCC[C@@H]2CN1Cc1ccccc1	-5.4%

Some of these compounds in order of their number in KAT2A inh, descending.
SMILES	KAT2A inh
NC(=O)C1CCCN(C(=O)c2ccc(Cl)cc2)C1 (stereo unspecified)	1.9%
CCOc1ccc(CCNC(=O)C(CC)n2nc(C)n3c(cc4sccc43)c2=O)cc1OCC (stereo unspecified)	-4.2%
CCOC(=O)C(=NCCCN1CCOCC1)NNc1cccc(C(F)(F)F)c1	-5.4%

(next part)
molecule	KAT2A inh
Cc1ccc(CNC(=O)CCNC(=O)Cn2ccc3ccccc3c2=O)o1	1.7%
CN(c1ccccc1)S(=O)(=O)c1cc(C(=O)NCCCn2ccnc2)ccc1Cl	-6.2%
O=C(COc1ccccc1C(=O)Nc1ccccc1)NCCc1ccccc1	-9.3%
CCOC(=O)CSc1nc2ccccc2n1CC(=O)N(C(C)C)C(C)C	0.5%
Cc1cc(OCC(=O)NC2CC(C)(C)NC(C)(C)C2)c2c(C)c(C)c(=O)oc2c1	-4.9%
CC(Sc1nnnn1-c1ccc(Cl)cc1)C(=O)NCC(=O)Nc1ccc(F)c(F)c1F (stereo unspecified)	-1.2%
CCCCc1ccc(/C(C)=N/NC(=O)C2CCCC2)cc1	-0.5%
CCOc1ccc(-c2nnc(N(CC)C(=O)C3CCC3)s2)cc1	-22.5%
Cc1cc(C(=O)NC2CCCc3c2cnn3-c2ccc(C)c(C)c2)n(C)n1 (stereo unspecified)	-7.0%
O=C(CN(CC1CCCO1)C(=O)CCC(=O)Nc1nccs1)NCC1CCCO1 (stereo unspecified)	-8.1%
CCN(CC)S(=O)(=O)c1ccc(/C=C/C(=O)Nc2ccc(Br)cc2F)cc1	-4.4%
CCC(Cc1ccccc1)NC(=O)CCNS(=O)(=O)c1cc(Br)cnc1N (stereo unspecified)	-8.7%
CCC(C)/C(C)=N/NC(=O)c1ccccc1OCCOc1ccccc1 (stereo unspecified)	-6.7%
CC(=O)c1ccc(NC(=O)Cc2ccsc2)cc1	-9.8%
Cc1ccc(S(=O)(=O)N2CCN(C(=O)COC(=O)COc3cccc(C(F)(F)F)c3)CC2)c(C)c1	-11.4%
Cc1ccc(NC(=O)c2cccs2)cc1[N+](=O)[O-]	-3.2%
CCCCC1=CC2=CC(=O)C(C)(OC(=O)CC)C(=O)C2=CN1CCN1CCOCC1 (stereo unspecified)	1.9%
COc1ccc2c(c1OC)C(=O)N1c3ccccc3C(=O)N(c3ccccc3F)C21 (stereo unspecified)	-1.8%
COc1cccc(OCCCCCCN2CCOCC2)c1	-2.9%
O=C(CSc1nc(=O)n2ccccc2n1)NCc1ccccc1	-7.4%
CSc1ccccc1NC(=O)NCCCl	-6.1%
COc1ccc2sc(-c3ccccc3OC)c(-c3ccc(OC)nc3)c2c1	-4.4%
CN(c1ccccc1)c1ccc(/C=C/[N+](=O)[O-])cc1	-17.0%
CN(Cc1ccccc1)C(=O)CSc1nc2ccccc2[nH]1	-1.6%
COc1cc(Cl)ccc1OCc1cc(C(=O)N2CCCCCC2)no1	-0.9%
Cc1cc(=O)oc2cc(OCC#N)ccc12	3.5%
Cc1ccc(SCc2cc(-c3ccc(Cl)cc3)no2)cc1	0.3%
CC(=O)Nc1ccc(OCC(=O)NC(C)c2ccc(F)cc2)cc1 (stereo unspecified)	1.0%
CC1CN=C(N(Cc2ccccc2)C(=O)Nc2ccccc2)S1 (stereo unspecified)	-0.2%
Cc1cc(C(=O)Nc2ccc(S(=O)(=O)Nc3onc(C)c3C)cc2)cs1	-1.0%
COc1ccccc1CNCC(=O)Nc1ccc(C(F)(F)F)cc1	-10.6%
CN(C)S(=O)(=O)c1ccc(N2CCCC2)c(C(=O)NCc2ccc(Cl)cc2)c1	-4.1%
O=C1CSC(c2ccccc2F)N1c1ccccc1 (stereo unspecified)	-5.0%
CCOC(=O)COc1ccc(C)cc1-c1ccno1	-0.9%
O=C(CSc1ccccc1)OCC(=O)N1CCN(C(=O)c2ccco2)CC1	-1.1%
CCc1nc(Nc2ccc3c(c2)OCCO3)c2oc3ccccc3c2n1	-9.3%
N/C(=N\S(=O)(=O)c1ccc(Cl)s1)c1ccccc1	0.7%
COc1cccc(NC(=O)NCc2cccn2C)c1	-7.8%
CCS(=O)(=O)c1nc(S(=O)(=O)c2ccc(Cl)cc2)c(NCCCN2CCOCC2)s1	-1.5%
CCCCN(C(=O)c1c(C)[nH]c(C(=O)OCC)c1C)c1ccccc1	-4.4%
CN(C(=O)CS(=O)(=O)c1cccc(Cl)c1)c1ccccc1	-8.8%
CCOC(=O)N1N=C(c2ccccc2)CC1(O)C(F)(F)F (stereo unspecified)	9.8%
Cc1cc(Cl)ccc1OCc1nnc2n1CCCCC2	-0.4%
O=C(Nc1cccc(S(=O)(=O)NC2=NCCCCC2)c1)c1cc(-c2ccccc2)nc2ccccc12	-7.3%
CCOC(=O)c1ccc2[nH]c3c(c2c1)CN(C)CC3	-0.8%
CCN(C(=O)COC(=O)c1cc([N+](=O)[O-])ccc1N1CCOCC1)C1CCCCC1	-5.7%
O=C(CC1C(=O)N(c2ccccc2)C(=O)N1CCC1=CCCCC1)Nc1ccc(F)cc1 (stereo unspecified)	-3.6%
COC(=O)c1ccc(NC(=O)CCc2nnc3ccc(N4CCC5(CC4)OCCO5)nn23)cc1	-3.3%
CN(C)CCC1Sc2ccccc2Oc2ccccc21 (stereo unspecified)	-4.6%
CCOC(=O)c1ccc(NC(=O)Nc2ccn(C)n2)cc1	-0.6%
COCCCN1C(=O)c2ccc(C(=O)OCC(=O)N(C)c3ccccc3)cc2C1=O	-14.5%
CCc1cccc(NC(=O)C2CCN(c3ncnc4sc(C)c(C)c34)CC2)c1	-9.4%
Cc1ccc(NC(=O)c2[nH]cnc2C(=O)NN)cc1	-7.1%
CCOC(=O)c1[nH]c(C)c(CN(C(C)=O)c2ccc(OCC)cc2)c1C	0.4%
CC1CC(OC(=O)c2ccccc2O)CC(C)(C)C1 (stereo unspecified)	12.8%&-14.8%
Cc1cccc(-c2noc(CCCC(=O)Nc3cccnc3)n2)c1	-9.5%
O=C1C(=O)N(C2CCN(C(=O)c3cccc(Cl)c3)CC2)CCN1Cc1ccc(F)cc1	12.4%
CC1CCCCC1NC(=O)c1ccc(N2CCCC2=O)cc1 (stereo unspecified)	-11.2%

Some of the entries above, set out differently:
COc1ccc2sc(-c3ccccc3OC)c(-c3ccc(OC)nc3)c2c1
  KAT2A inh = -4.4%
CN(c1ccccc1)c1ccc(/C=C/[N+](=O)[O-])cc1
  KAT2A inh = -17.0%
CN(Cc1ccccc1)C(=O)CSc1nc2ccccc2[nH]1
  KAT2A inh = -1.6%
